Rango dissoc inh: qHTS Assay for Inhibitors of RanGTP induced Rango (Ran-regulated importin-beta cargo) - Importin beta complex dissociation; Snurportin-1 (Homo sapiens) + GTP-binding nuclear protein Ran (Homo sapiens) + Importin …; Biochemical FRET Rango-importin beta, RanGTP-induced dissociation; Potency, µM (highest dose often 46.1 µM), without a hit: at the top dose activity change, negative = inhibition; 340,000 compounds, 0.071% hits; active means falling FRET ratio curve, often poorly fitted, with flat reads before Ran was added; inconclusive means other falling curves, or compound fluorescence or quenching; inactive means flat or rising ratio curve;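 note: potency is the fitted concentration of half-maximal effect; % of control where 0% means no effect; nearly all actives have a fitted effect of over 45% in size; -100% = wells without RanGTP and RCC1; the record marks most hits as doubtful in a second field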
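Rango/importin beta premix (0.1/0.25 uM final), PBS + 1 mM DTT + 0.02% Tween-20 + 0.1% BSA; cpd 5 min RT; FRET pre-read; + RanGTP-RCC1 (0.6 uM Ran, 2 mM GTP, 0.2 uM RCC1); 45 min RT; FRET post-read, ex 430, em 486/530 nm.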
miR-21 reporter: qHTS Assay for Modulators of miRNAs and/orActivators of miR-21; Potency, µM (titrated, usually from 38.3 µM), for the others: top-dose reporter change, positive = more light; HeLa miR-21 FLuc reporter, luciferase, 48 h; AID 2288, 2010; 340,000 tested, under 10 active; active = well fitted rising curve with a large enough effect; inconclusive = small, poorly fitted or top-dose-only effect; inactive = no such curve, though single readings can be large or run the other way;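 note: % of control where 0% means no effect; miR-21 action dims this reporter so a rising signal means less miR-21 action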
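Using DMEM plus 10% FBS, HeLa miR-21-FLuc cells are incubated with test compounds (final up to about 40uM) for 48 hours; firefly luciferase signal is then imaged following reagent-mediated lysis.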
Rango complex inh: qHTS Assay for Inhibitors of Rango (Ran-regulated importin-beta cargo) - Importin beta complex formation; Importin subunit beta-1 (Homo sapiens), Q14974; Rango CFP/YFP FRET sensor + importin beta, 45 min; 340,000 compounds, 0.031% hits; AID 540263, 2011; Potency, µM (highest dose often 92.2 µM), inactives show at the highest dose inhibition of complex formation; active = rising FRET ratio curve, often small or poorly fitted; inconclusive = mostly compound fluorescence or quenching in the first reads; inactive = flat curves in all reads;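 note: potency is the fitted concentration of half-maximal effect; 0% = DMSO wells and 100% = buffer wells lacking importin beta; nearly all actives have a fitted effect of over 15% in size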
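FRET biosensor Rango (snurportin 1 IBB between N-terminal EYFP and C-terminal Cerulean), 50 nM in PBS/1 mM DTT/0.02% Tween-20/0.1% BSA, preincubated 5 min RT with compound; 0.125 microM importin beta added, 45 min RT, CFP/YFP FRET ratio read.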
GLA inh pH 4.5: qHTS Assay for Inhibitors of Human alpha-Galactosidase at pH 4.5; Alpha-galactosidase A (Homo sapiens), P06280; purified enzyme, 4-MU-alpha-Gal fluorescence, pH 4.5; activity change, negative = inhibition, % at 105 µM; 230,000 tested, under 10 active; inconclusive = small, poorly fitted or top-dose-only inhibition, or a rising curve; inactive = flat fitted curve, though single readings scatter; no compound was filed as active;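 note: 0% = full activity with enzyme and -100% = basal without enzyme; dose as in the result columns while the protocol names 77 µM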
Target sequence (P06280 whole entry, looked up): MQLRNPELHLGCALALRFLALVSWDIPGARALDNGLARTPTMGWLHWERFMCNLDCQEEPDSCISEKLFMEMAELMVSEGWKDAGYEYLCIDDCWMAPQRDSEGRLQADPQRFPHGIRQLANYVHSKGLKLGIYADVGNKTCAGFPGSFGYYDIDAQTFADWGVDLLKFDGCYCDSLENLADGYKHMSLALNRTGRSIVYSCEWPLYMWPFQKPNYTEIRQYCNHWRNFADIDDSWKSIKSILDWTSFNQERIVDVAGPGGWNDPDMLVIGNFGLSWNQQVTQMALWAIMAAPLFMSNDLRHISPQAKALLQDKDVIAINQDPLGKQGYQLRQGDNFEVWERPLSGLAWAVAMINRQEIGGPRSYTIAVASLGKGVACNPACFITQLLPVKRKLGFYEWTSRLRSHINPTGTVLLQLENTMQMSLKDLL
An asterisk follows results filed as active; ? = inconclusive; . = no result given; & = joins results of further samples; [ ] = another dose, or the depositor's remark. The list is partial (hit frequency here may not be typical).

SMILES	Rango dissoc inh	miR-21 reporter	Rango complex inh	GLA inh pH 4.5
O=Cc1ccc(N2CCCCC2)cc1	7%	1%	1.4%	-7
Cc1nnc(SCc2cc(=O)[nH]c(N3CCCCC3)n2)s1	9%	.	0.3%	.
COCCSc1ccccc1C(=O)N1CCCC(C)C1 (stereo not drawn)	11%	0%	-2.5%	5
Cc1cccc(N/C(N)=N/c2nc3c(c(=O)[nH]2)CCCC3)c1	19%	-4%	-2.8%	1
N#Cc1ccccc1CSc1nc2ncc(Br)cc2[nH]1	1%	-10%	?	5
CNc1cc(C)nc(N2CCOCC2)n1	15%	0%	-2.0%	-1
CCC(C)c1ccccc1NC(=O)C(C)N(C)Cc1cccc(OC)c1 (stereo not drawn)	14%	6%	-0.1%	-13
COc1ccc(Cl)cc1Nc1nc(N)c2ccccc2n1	16%	-19%	8.1%	.
COc1ccc(C2C(C#N)=C(N)OC3=C2C(=O)CC(C)(C)C3)c(OC)c1OC (stereo not drawn)	?	-3%	-5.4%	4
CCOC(=O)C1(CCOc2ccccc2)CCN(Cc2ccc(NC(C)=O)cc2)CC1	-2%	-6%	-0.4%	-2
COc1ccc(C(c2nnnn2CCc2ccccc2)N2CCN(C3CCCC3)CC2)cc1 (stereo not drawn)	-2%	-2%	1.2%	3
CCCCCCCN1CCN=C1N(C)C	6%	.	0.1%	.
CC1=NNC(=O)C1CC(=O)N/N=C(/C)c1cccc([N+](=O)[O-])c1 (stereo not drawn)	1%	-1%	-1.2%	6
CCc1ccc(NC(=O)C(=O)NCC2CCCO2)cc1 (stereo not drawn)	10%	-33%	4.0%	2
Cc1ccc([C@@H]2CC=C(C(=O)O)CN2S(=O)(=O)c2ccc(C)cc2)cc1	-3%	.	-0.6%	.
CCCOc1ccc(/C(O)=C2/C(=O)C(=O)N(CCN(CC)CC)C2c2ccncc2)cc1 (stereo not drawn)	.	0%	.	-11
FC(F)(F)c1ccc(N2CCOCC2)c(Nc2nc3ccccc3n3cnnc23)c1	-11%	1%	?	-8
O=C(CN1C(=O)COc2ccc(S(=O)(=O)N3CCCCC3)cc21)NCc1ccc(Cl)cc1	7%	2%&6%	-0.1%	.
Cc1cc(N2CCCC2)ccc1NC(=O)COc1ccc(Cl)cc1	0%	.	0.2%	.
COc1ccc(C(C)=O)c2c1OCCO2	-3%	-4%	9.0%	.
CC1(C)CC(=O)C=C(NCCc2ccc(S(N)(=O)=O)cc2)C1	3%	0%	-2.5%	-1
O=C(COc1ccccc1)NNC(=S)NC(=O)c1ccc(Cl)cc1Cl	-1%	-5%	-1.5%	1
CC1(C)SC2c3ccccc3C(=O)N2[C@@H]1C(=O)NC1CC1 (stereo partly drawn)	13%	-2%	-1.0%	.
COc1cccc(C(=O)Nc2ccc(C)cc2)c1	10%	-28%	1.0%	-8
Cc1cc(C)cc(NC(=O)N2CCC(NC(=O)c3ccco3)CC2)c1	-14%	-5%	2.8%	.
O=c1[nH][nH]c(C(F)(F)F)c1C=NCc1cccs1	9%	2%	4.8%	3
COc1ccc(OCC(=O)N2N=C(C(F)F)CC2(O)C(F)F)cc1 (stereo not drawn)	10%	-1%	-7.6%	1
COc1ccc(CNC(=O)C2CCN(S(=O)(=O)N3CC(C)CC(C)C3)CC2)cc1 (stereo not drawn)	1%	0%	6.0%	.
COc1ccccc1C(=O)Nc1ccc(OCc2nnc3c4ccccc4c(C)nn23)cc1	12%	-24%	-3.4%	-7
Cc1cccc(C(=O)NCCNc2nc3cc(C)c(C)cc3cc2C)c1	4%	0%	-0.1%	-16
COc1ccc(-n2c(SCC(=O)Nc3ccc(C(=O)O)cc3)nnc2-c2cccs2)cc1	1%	-2%	4.7%	-6
Cc1c(Cl)cccc1-c1ccc(CNCc2ccccn2)o1	-7%	-29%	-1.1%	.
CCC(C)(C(=O)NC1CCCC1)N(C(=O)c1ccccn1)c1ccc(C)cc1 (stereo not drawn)	-5%	4%	9.5%	-1
COc1ccc(OC)c(S(=O)(=O)n2nnc3cc(Cl)ccc32)c1	12%	0%	2.8%	-19
Cc1ccc(C(CNS(=O)(=O)c2ccc(C)cc2)N2CCN(C)CC2)cc1 (stereo not drawn)	-11%	.	-1.2%	.
Cc1ccc(S(=O)(=O)N2CCN(C(=O)CN3C(=O)NC(C)(CCC(C)C)C3=O)CC2)c(C)c1 (stereo not drawn)	6%	.	0.6%	.
CCOC(=O)NN1C(=O)c2ccccc2NC12CCCC2	8%	-1%	-2.4%	12
O=C(NS(=O)(=O)c1ccccc1Cl)c1ccc[nH]1	.	-4%	.	6
O=c1[nH]c2ccccc2cc1CN(Cc1cccnc1)S(=O)(=O)c1ccc(Cl)cc1	-5%	7%	5.4%	.
Cc1nc2c(ccc3nc(NC(=O)Cc4ccccc4)sc32)s1	7%	-52%	0.4%	-24
Cc1cc(C(=O)C(=O)O)c(C)n1-c1ccc(Cl)c(Cl)c1	1%	-22%	2.0%	9
CN(N=Nc1nc[nH]c1C(=O)NN)C1CCCCC1	-8%	.	0.3%	.
Cc1cc(C(F)(F)F)nn1CC(=O)N1CCOCC1	5%	3%	-2.4%	2
CCOC(=O)C1(S(=O)(=O)c2ccc(Cl)cc2)CCN(Cc2ccc(Cl)cc2)CC1	-2%	11%	-0.8%	-3
Cn1c(N2CCN(C(=O)NCc3ccccc3)CC2)nc2ccccc21	-21%	-6%	0.1%	0
C/C(=N\NC(=O)c1cccc(N/N=C(\C)c2cc(O)ccc2O)c1)c1cc(O)ccc1O	-18%	4%	7.7%	2
O=C(NCCc1ccc(Cl)cc1)C1CCC(CNc2nc(=S)[nH]c3ccccc23)CC1 (stereo not drawn)	1%	-1%	-1.8%	4
COc1ccc(N2CCN(CC(=O)Nc3ccccc3C(=O)NCc3ccccc3)CC2)cc1	13%	.	0.4%	.
COc1cc(/C=C/C(=O)OCC(=O)N2CCOCC2)ccc1OCC#N	-2%	4%	0.3%	4
CC1=C(C)CC(C(=O)Nc2nc(-c3ccc(F)cc3)c(C)s2)C(C(=O)O)C1 (stereo not drawn)	-8%	-6%	0.2%	5
CCc1nc2ccc(C(=O)NC3CCC(C)CC3)cc2nc1CC (stereo not drawn)	-9%	-6%	-0.4%	.
COc1cccc(-c2ccc(NC(=O)C3CCCN(Cc4cnn(C)c4)C3)cc2)c1 (stereo not drawn)	-7%	-6%	1.5%	.
Cc1ccc(-c2noc(COc3ccc4c(c3)OCO4)n2)cc1	1%	-3%	4.8%	-5
CN(C)C1=C(Cl)C(=O)N(c2ccc(Cl)c(Cl)c2)C1=O	-2%	12%	5.0%	5
CCn1c2ccccc2c2cc(NC(=O)c3ccc([N+](=O)[O-])cc3)ccc21	6%	3%	2.6%	-7
N#Cc1c(-c2ccco2)ccn(Cc2cccc(F)c2)c1=O	-8%	-16%	-8.1%	13
O=C(CSc1ccc(-c2cccs2)nn1)Nc1ccccc1	-4%	-18%&-16%	0.1%	0
CN1CCN(c2nc(-c3ccco3)cc(C(F)(F)F)n2)CC1	3%	-9%	3.2%	-3
CN1CCC(CO)(Cc2ccccc2)CC1	23%	-2%	1.9%	6
CCOC(=O)c1cccc(C2=CC(=O)C[C@H](c3ccc(OC)c(OC)c3)C2)c1	33%	.	-0.2%	.

Complete entries as entered above. Screens in order: Rango dissoc inh | miR-21 reporter | Rango complex inh | GLA inh pH 4.5
`CC1=C(C)CC(C(=O)Nc2nc(-c3ccc(F)cc3)c(C)s2)C(C(=O)O)C1` (stereo not drawn) is entered as -8% | -6% | 0.2% | 5
`N#Cc1c(-c2ccco2)ccn(Cc2cccc(F)c2)c1=O` is entered as -8% | -16% | -8.1% | 13
`CCOC(=O)c1cccc(C2=CC(=O)C[C@H](c3ccc(OC)c(OC)c3)C2)c1` is entered as 33% | . | -0.2% | .
`CCc1nc2ccc(C(=O)NC3CCC(C)CC3)cc2nc1CC` (stereo not drawn) is entered as -9% | -6% | -0.4% | .
`CN1CCN(c2nc(-c3ccco3)cc(C(F)(F)F)n2)CC1` is entered as 3% | -9% | 3.2% | -3

More compounds follow.
SMILES	Rango dissoc inh	miR-21 reporter	Rango complex inh	GLA inh pH 4.5
CC(=O)Nc1ccc(NC(=O)CSc2nnc(NC(=O)Cc3ccc(F)cc3)s2)cc1	6%	7%	-0.3%	.
CC(C)c1nc(=S)c2ccccc2[nH]1	-12%	-19%	-2.5%	-6
CC(=O)N1CC2(C)CN(C(C)=O)CC(C)(C1)C2=O	-12%	-2%	0.1%	5
CC(C)Oc1ccc(Cc2cnc(N)nc2N)cc1	-5%	-9%	0.7%	7
O=C(CCCN1C(=O)CSc2ncccc21)N1CCN(Cc2ccccc2)CC1	-9%	1%	-3.9%	0
CCOc1ccc(C2CC(c3ccc(OC)c(OC)c3)n3nc(N)nc3N2)cc1 (stereo not drawn)	?	-10%	2.1%	-5
Cc1c(-c2ccc(F)cc2)nc(N)c(C#N)c1-c1ccco1	-9%	-9%	-1.6%	1
Cc1ccc(S(=O)(=O)NC(C(=O)OCC(=O)NC2CCS(=O)(=O)C2)C(C)C)cc1 (stereo not drawn)	13%	-7%	-3.3%	7
CCCCNC(=O)NNC(=O)c1ccc(F)cc1	6%	-8%	0.0%	11
COc1ccc(C2N(c3ccc(C)cc3)CCN2c2ccc(C)cc2)cc1O	0%	-11%	6.7%	-4[21.1 µM]
O=C(OC(c1ccccc1)c1nccc2ccccc12)c1cc([N+](=O)[O-])cc([N+](=O)[O-])c1 (stereo not drawn)	1%	8%	-3.5%	4
CCOC(=O)C1CCN(C(=O)c2oc3ccc(S(=O)(=O)N4CCCCCC4)cc3c2C)CC1	-5%	6%	2.4%	-3
CCCNC(=O)[C@@H]1CCCN1C(=O)[C@@H]1Cc2ccccc2CN1	4%	-4%	0.5%	.
Cc1ccc(C)c(NC(=O)COC(=O)CC2CC3CCC2C3)c1 (stereo not drawn)	36%	.	4.1%	.
Cc1c(C#N)c2ccccc2n1CC(=O)NCc1ccccc1	11%	-10%	-0.6%	5
O=C(CSc1nnc(-c2cccnc2)o1)Nc1nccs1	-21%	.	2.7%	.
CC1(C)Cc2c(cnn2-c2cccc(F)c2)C(NC(=O)Cn2cccn2)C1 (stereo not drawn)	1%	-1%	?	.
Cc1cc(OC(=O)c2c(C)cc(O)cc2O)cc(O)c1C(=O)O	10%	.	-1.2%	-4&8
O=C(CC1NC2CCCCC2NC1=O)Nc1cccc(C(F)(F)F)c1 (stereo not drawn)	0%	-8%	-0.4%	13
CCCCC(C)Sc1nc2c([nH]1)c(=S)n(C)c(=O)n2C (stereo not drawn)	0%	.	-0.5%	.
Nc1cccc(Oc2ccc3c(c2)C(=O)NC3=O)c1	20%	-5%	-2.3%	.
O=C1c2ccccc2C(=O)c2cc(NC(=O)C3CC3)ccc21	?	-63%	-3.2%	-13
Cc1c(NC(=O)c2cc(-c3ccccc3)on2)c(=O)n(-c2ccccc2)n1C	-1%	-7%	0.4%	-27
O=C(COc1ccc(S(=O)(=O)NCc2ccccc2)cc1)N1CCOCC1	-10%	-3%	-0.1%	2
O=C(CSc1nc2ccccc2o1)N1CCN(c2ccccc2)CC1	3%	-1%	-0.5%	6
CCc1cc2c(=O)c(Oc3ccccc3)c(C)oc2cc1O	-6%	1%	0.0%	?
CCOC(=O)CSc1nc2cc(S(=O)(=O)N3CCOCC3)ccc2n1CC	-3%	.	-3.8%	.
COc1cccc(-c2nnc(SCC(=O)Nc3ccc(OC)c(OC)c3)n2N)c1	-11%	0%	?	3
O=C(O)CN1C(=O)/C(=C\c2cccc(OC(=O)c3ccco3)c2)SC1=S	-4%	-1%	-0.6%	.
CC(/C=N/NC(=O)Cc1cccn1C)=C\c1ccccc1	-4%	-47%	-5.4%	3
O=C1CSC(=S)N1/N=C/c1cccc(C(F)(F)F)c1	3%	-1%	?	.

Bioassay records from PubChem BioAssay.
